Screens: PubChem, National Center for Advancing Translational Sciences (NCATS)
Resorufin autofl – qHTS Assay for Spectroscopic Profiling in Resorufin Spectral Region | max dye-equivalent concentration, M | 59,000 tested, 0.04% active | AID 588, 2007 | Compound fluorescence, resorufin region 547/598 nm, buffer; stronger effect = higher value; active = above 10 nM dye equivalent; inconclusive = 1 to 10 nM; inactive = 1 nM or less; a few of its hits are not listed in these tables; also: highest value over a series up to 38 µM
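Tris 100 mM pH 8.0; compound added, 15 min RT; CCD imager read, ex 547 nm/em 598 nm; signal normalized to resorufin standard curve (six concentrations per plate) as dye-equivalent concentration.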
TSHR ag – qHTS Assay for Agonists of the Thyroid Stimulating Hormone Receptor; HEK293-CNG-TSHR cells (CNG channel as cAMP sensor), membrane potential dye, cAMP; AID 926, 2007; Thyrotropin receptor (Homo sapiens), P16473; 73,000 tested, 0.48% active; Potency, µM (highest dose often 57.1 µM), without a hit: at the highest dose activation, actives largely listed as activators; active = well fitted activation curve of enough size with the parental cells flat; inconclusive = any curve in the parental cells; inactive = parental cells flat and receptor cells flat or falling; also: potency is read from the fitted curve at half-maximal effect; % of control where 0% means no effect; weak receptor curves with flat parental cells got no call and are not listed
Target sequence (P16473 whole entry, looked up): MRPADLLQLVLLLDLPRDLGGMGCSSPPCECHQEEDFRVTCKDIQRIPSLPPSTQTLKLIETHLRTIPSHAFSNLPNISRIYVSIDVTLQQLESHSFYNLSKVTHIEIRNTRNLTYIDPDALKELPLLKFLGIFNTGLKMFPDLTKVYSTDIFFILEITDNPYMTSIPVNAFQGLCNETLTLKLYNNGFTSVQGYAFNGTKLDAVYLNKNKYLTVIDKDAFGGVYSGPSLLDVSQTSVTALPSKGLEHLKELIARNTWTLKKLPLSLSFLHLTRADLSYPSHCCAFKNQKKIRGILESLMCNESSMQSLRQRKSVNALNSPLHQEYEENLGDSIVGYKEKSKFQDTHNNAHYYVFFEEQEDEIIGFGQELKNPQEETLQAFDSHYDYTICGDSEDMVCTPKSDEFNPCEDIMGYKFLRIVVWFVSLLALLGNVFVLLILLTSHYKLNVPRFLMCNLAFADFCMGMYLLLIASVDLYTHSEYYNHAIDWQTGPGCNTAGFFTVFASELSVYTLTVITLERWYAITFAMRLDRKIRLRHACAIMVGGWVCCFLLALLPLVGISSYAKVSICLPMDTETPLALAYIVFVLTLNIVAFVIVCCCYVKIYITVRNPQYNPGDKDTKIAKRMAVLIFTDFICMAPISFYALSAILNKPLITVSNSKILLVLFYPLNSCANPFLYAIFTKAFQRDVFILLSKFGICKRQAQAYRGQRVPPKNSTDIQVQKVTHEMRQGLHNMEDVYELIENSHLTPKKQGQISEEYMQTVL
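HEK 293 cells stably expressing TSHR and a modified CNG channel, with CNG-only parental cells as counterscreen, were preloaded 60 min at room temperature with membrane potential dye containing 100 uM RO 20-1724. Compound exposure was 30 min, and depolarization was read as fluorescence at 590 nm.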
AID923 – qHTS Assay for Allosteric/Competitive Inhibitors of Caspase-1: Spectroscopic Profiling in AFC Spectral Region | Potency, µM (highest dose often 57.5 µM), inactives show at the top dose fluorescence increase, usual class: activators | compound fluorescence, AFC spectral region (405/520 nm); almost no hit is shown here | AID 923, 2007 | 75,000 tested, 1.1% active; active = well fitted activation curve with a large enough effect; inconclusive = small, poorly fitted or top-dose-only effect;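 also: potency is read from the fitted curve at half-maximal effect; 0% is about no effect; scaled to a free AFC standard on each plate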
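Titrations up to 57 uM read every 20 sec for 3 min (405/520 nm) with 50 nM caspase 1 and 5 uM Ac-WEHD-AFC, pH 7.5 HEPES buffer. Fluorescence-vs-time intercept gave baseline, scaled against on-plate AFC standard.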
A647 autofl – qHTS Assay for Spectroscopic Profiling in A647 Spectral Region; Compound fluorescence, A647 channel (570/671 nm), Tris buffer; max dye-equivalent concentration, M; 59,000 tested, under 10 active; active means above 1 µM dye equivalent; inconclusive means 0.1 to 1 µM; inactive means 0.1 µM or less;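 also: values scaled relative to a standard on each plate; highest value over a series up to 38 µM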
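Compound fluorescence was measured in 100 mM Tris buffer, pH 8.0, after 15 min at room temperature, using 570 nm excitation and 671 nm emission filters. Signal was normalized to a per-plate Alexa 647 standard curve and expressed as dye-equivalent concentration at each compound concentration.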
A488 autofl – qHTS Assay for Spectroscopic Profiling in A488 Spectral Region; AID 591, 2007; compound autofluorescence, A488 spectral region, dye equivalency; stronger effect = higher value; 59,000 tested, 0.1% active; max dye equivalency, M; active = above 10 nM dye equivalent; inconclusive = 1 to 10 nM; inactive = 1 nM or less; about half of its hits are not listed in these tables;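 also: highest value over a series up to 38 µM; compound alone in buffer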
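Readout is A488 dye-equivalent concentration, calibrated by a per-plate six-point Alexa 488 series. Compounds in 100 mM Tris buffer pH 8.0 were incubated 15 min at room temperature. Plates were imaged using 480 nm excitation/540 nm emission filters.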
Active calls of the source: *; i = inactive; ? = inconclusive; . = not tested or not shown; [ ] = dose if it differs, or a comment. A portion of the library; the hit share may differ from the screen's.

Each structure is followed by: Resorufin autofl | TSHR ag | AID923 | A647 autofl | A488 autofl
> CCC1CCCCN1CC(=O)Nc1cc(C)nn1-c1nc(C)cc(C)n1 (stereo not drawn)
  i | ? | -1.3% | 1.5e-08 | i
> CCC(C)NC(=O)CC1Oc2ccc(Cl)cc2NC1=O (stereo not drawn)
  . | -2% | 1.5% | . | .
> CC(C)(C)c1csc(N(CCC#N)CCC#N)n1
  i | 0%[11.4 µM] | -0.1% | 2.4e-08 | i
> O=C(NCc1cccnc1)c1ccc(S(=O)(=O)N2CCOCC2)cc1
  i | 5%[11.4 µM] | -0.2% | 1e-09 | i
> O=C(NCc1ccc(F)cc1)C1CCCN(C(=O)Nc2ccccc2)C1 (stereo not drawn)
  i | -6% | -0.6% | 4.9e-09 | i
> CC(=O)Nc1cc(-c2nn3c(C)nnc3s2)ccc1C
  . | -2% | 0.4% | . | .
> O=C(CN1CCOc2ccccc21)N1CCN(c2cccc(Cl)c2)CC1
  . | 0% | 2.0% | . | .
> CCCCCCNC(=O)Cc1c(O)c2ccccc2[nH]c1=O
  i | -15% | 3.7% | 3e-08 | i
> CCOC(=O)C1=C(C)NC(=O)NC1c1ccc(Cl)cc1Cl (stereo not drawn)
  i | 12% | -2.2% | 6.2e-09 | i
> COCCN(CCOC)Cc1c(C)[nH]c2ccccc2c1=O
  . | -5% | 0.3% | . | .
> Cc1cc(C)n(-c2nc(NCC(C)O)c3c4c(sc3n2)CCCC4)n1 (stereo not drawn)
  i | 16% | 0.6% | 2.3e-08 | i
> O=C(O)CN(CC(=O)O)c1ccccc1
  i | ? | 4.3%[11.5 µM] | 1e-08 | i
> Cc1csc(NC(=O)CSc2nnc(-c3ccoc3C)o2)n1
  i | 5% | 0.5% | 2.2e-08 | i
> O=C(Cn1cnc2c(nnn2Cc2ccc(Cl)cc2)c1=O)N1CCCc2ccccc21
  i | . | -0.9% | 6.1e-09 | i
> Cc1cc(C)nc(SCC(=O)c2ccc(O)cc2O)n1
  . | 3% | -3.5% | . | .
> Cc1noc(C)c1C(=O)N1CCC[C@@]2(CCN(c3ccccn3)C2)C1
  i | 1% | -1.9% | 1e-08 | i
> O=C(Oc1ccc2ccc(=O)oc2c1)N1CCOCC1
  . | ? | 4.5% | . | .
> NC(=O)c1oc2ccccc2c1NC(=O)c1ccc(F)cc1
  . | ? | 2.3% | . | .
> COc1cccc(-c2noc(C3CCCN(S(=O)(=O)c4cccc(Cl)c4C)C3)n2)c1 (stereo not drawn)
  i | ? | 0.1% | 1.6e-08 | i
> CN(C)CCSc1nnc2sc3ccccc3n12
  i | 5% | 0.1% | 4.2e-09 | i
> O=C(NCc1n[nH]c(=S)n1-c1cccc(Cl)c1)c1ccc(S(=O)(=O)N2CCCC2)cc1
  i | -3% | 1.3% | 2.4e-08 | i
> COc1ccc(N2CCN(CC(O)c3c[nH]c4ccc(OC)cc34)CC2C)cc1 (stereo not drawn)
  i | -31%[inhibitor] | 0.6% | 2.8e-09 | i
> Cn1c(=O)c(-c2ccc(Cl)cc2)nc2cnc(OCc3ccccc3)nc21
  i | 5% | 5.6% | 2.2e-08 | i
> CC(C)NC(=O)N1CC2(CCN(C(=O)c3ccco3)CC2)C1
  i | ? | -1.6% | 5.8e-09 | i
> Cc1ccc(-c2noc(CCC(=O)Nc3ccccc3N3CCN(C)CC3)n2)cc1
  i | 15% | -1.4% | 2e-08 | i
> COc1ccc(C(=O)N2CCN(Cc3cc(OC)c(O)c(OC)c3)CC2)cc1OC
  i | ? | 0.8% | 4.7e-08 | i
> O=C(c1cccc(S(=O)(=O)N2CCCC2)c1)c1cccc(S(=O)(=O)N2CCCC2)c1
  . | ? | 0.1% | . | .
> Cc1cc(N2CCN(c3nc(N4CCOCC4)nc4ccccc34)CC2)c2ccccc2n1
  i | -22% | 0.1% | 2.9e-08 | i
> CCOc1ccc2nc(SCC(=O)Nc3ncccn3)[nH]c2c1
  i | . | . | 1.9e-08 | i
> COC(=O)c1ccc(CN(C)S(=O)(=O)c2ccc(C)cc2)o1
  i | 1%[11.4 µM] | -0.9% | 1e-09 | i
> COc1ccccc1N1CCN(C(CNC(=O)C2CCCCC2)c2cccnc2)CC1 (stereo not drawn)
  . | ? | 11% | . | .
> Cn1c(=O)c2c(nc(CN3CCN(Cc4ccccc4)CC3)n2Cc2ccccc2)n(C)c1=O
  . | -5% | 4.5% | . | .
> O=C(NCCN1CCOCC1)C1CCC(=O)N1C1CCCCC1 (stereo not drawn)
  i | 2% | 0.5% | 1e-09 | i
> CCC(C)c1ccc(O)c(NC(=O)c2cncc(Br)c2)c1 (stereo not drawn)
  i | -10% | -0.3% | 2.5e-08 | i
> C=CC[C@@H]1C=C[C@@H](O/N=C2/C[C@@H](O)[C@@H](O)[C@@H]3[C@@H]4C(=O)N(CC)C(=O)[C@H]4CC[C@@H]23)[C@@H](CO)O1
  . | -3%[11.4 µM] | 0.1%[11.5 µM] | . | .
> Cn1c(=O)c(C(=O)NCCO)c(O)c2ccccc21
  i | 3% | -1.9% | 1e-09 | i
> Cc1ccc(CCP(=O)(O)CN2CCOCC2)cn1
  . | 2% | -1.7% | . | .
> COc1ccc(C(=O)N(c2ccccc2)C2C=CS(=O)(=O)C2)cc1 (stereo not drawn)
  i | 13% | 1.4% | 1e-09 | i
> CC1(C)OC(=O)N(CCc2ccccc2)C1(C)O (stereo not drawn)
  i | -2%[11.4 µM] | -2.1% | 7.2e-09 | i
> N=c1c2c3c(sc2ncn1CCN1CCOCC1)CCCC3
  i | 9% | -1.1% | 1.9e-08 | i
> Cc1nc2ccc(Br)cn2c1NC(C)(C)C
  i | 9% | 1.8% | 4.5e-08 | i
> CC1(C)NC(=O)N(CC(O)COc2ccccc2C(=O)Nc2ccccc2)C1=O (stereo not drawn)
  i | . | . | 6.4e-08 | i
> COc1ccc(C(=O)NCCc2nnc(SCc3nc4ccccc4c(=O)[nH]3)n2C)cc1
  i | ? | 1.8% | 1e-09 | i
> Cc1cc(C(=O)CSc2nnc(N)s2)c(C)n1CCc1ccc(Cl)cc1
  i | ? | 1.4% | 3.7e-08 | i
> COc1ccc(NC(=O)CN2CCC(C)CC2)cc1
  i | 2% | -0.4% | 3.8e-08 | i
> COc1ccc(S(=O)(=O)n2nc(OC(=O)c3ccc(C)cc3)cc2N)cc1
  i | -5% | -0.6% | 3.2e-09 | i
> CCOC(=O)CSc1nc2cc(C(=O)N3CCC(C(N)=O)CC3)ccc2c(=O)n1-c1ccccc1
  i | 11% | 3.1% | 1.5e-08 | i
> Cc1cc(C)c(S(=O)(=O)Nc2ccc(O)cc2)cc1C
  i | -5% | 0.4% | 2e-09 | i
> Nc1ccccc1SCC(=O)N1CCc2ccccc21
  i | 1% | 1.1% | 4.5e-08 | i
> CCOC(=O)[C@H]1CCC[C@@H](NS(=O)(=O)c2ccc(NC(C)=O)cc2)C1
  i | -6% | -0.4% | 1.4e-09 | i
> Cc1cccc(CS(=O)(=O)Cc2ccc(C(=O)NCCN3CCCCC3C)o2)c1 (stereo not drawn)
  i | 17% | 1.2% | 6.2e-09 | i
> O=C(O)CCn1c(=O)sc2ccccc21
  i | 2% | 0.6% | 1.6e-09 | i
> COc1ccccc1N1C(=O)CC(N2CCc3ccccc32)C1=O (stereo not drawn)
  i | -5% | -1.5% | 2.1e-09 | i
> COc1ccc(S(=O)(=O)N[C@@H](Cc2ccccc2)C(=O)N2CC[C@@]3(O)CCCC[C@H]3C2)cc1
  i | 6% | 1.2% | 1e-09 | i
> Cc1nc(=O)c(-c2ccccc2)c(C)n1-c1ccccc1C(=O)O
  i | 6% | -0.2% | 1e-09 | i
> CCOc1ccccc1-c1nc(-c2cc3ccc(C)cc3[nH]c2=O)no1
  i | ? | 1.4% | 5.6e-08 | i
> CC(=O)N(C)C1(c2nnnn2CCOC(=O)Nc2cccc3ccccc23)CCCC1
  i | 1% | -0.2% | 3.6e-08 | i
> Cc1cc(C(C)(C)C)c(OCCCN2CCOCC2)c(C(C)(C)C)c1
  i | 14%[11.4 µM] | -1.9%[11.5 µM] | 2.8e-09 | i
> Cc1nnc(SCc2cnc(-c3ccccc3)o2)[nH]c1=O
  i | 6% | 2.5% | 1e-09 | i
> C=CCNC(=O)c1ccncc1
  i | 1% | 0.3% | 1.8e-08 | i

(further entries)
Each structure is followed by: Resorufin autofl | TSHR ag | AID923 | A647 autofl | A488 autofl
> COc1ccccc1-n1c(SCC(=O)Nc2ccc(F)cc2)nc2c(c1=O)SCC2
  . | 0% | -3.5% | . | .
> CCCCNC(=O)c1ccc(N2CCOCC2)c(NS(=O)(=O)c2ccc(OC)cc2)c1
  i | ? | -0.5% | 1.1e-08 | i
> CCOC(=O)C1C(=O)CC(C)(O)C(C(=O)OCC)C1c1cc(Br)ccc1OC (stereo not drawn)
  i | 13% | 0.6% | 2.8e-09 | i
> COCC(=O)N(c1ccc(C(C)C)cc1)C1C=CS(=O)(=O)C1 (stereo not drawn)
  i | 3%[11.4 µM] | 3.0% | 1e-09 | i
> O=c1[nH]cc(COCc2ccccc2)c(=O)[nH]1
  i | 2% | -0.6% | 9.3e-09 | i
> O=C(Nc1nc(-c2ccc(S(=O)(=O)N3CCCC3)cc2)cs1)c1ccco1
  i | ? | 3.1% | 2.7e-09 | i
> N#CCSC1=Nc2ccccc2C2=NC(CCC(=O)N3CCN(c4ccccc4)CC3)C(=O)N12 (stereo not drawn)
  i | 0% | 1.0% | 3.6e-09 | i
> O=C1c2ccccc2N(Cc2ccc(Cl)cc2)C2=NCCN12
  . | ? | 3.8% | . | .
> CCN1CCCC1Cn1c(-c2ccccc2)nc2c(NCc3ccccc3)nc(C)nc21 (stereo not drawn)
  . | ? | 2.0% | . | .
> O=C(Nc1n[nH]c(C2CCCCC2)n1)C1CCCCC1
  i | 24% | -1.5% | 4e-08 | i
> CCc1c(C)nc2ncnn2c1N1CCC(C(=O)Nc2ccc(C)cc2)CC1
  i | ? | -0.5% | 1.5e-08 | i
> CCOc1cc2[nH]c(=O)n(CCC(=O)NCCc3ccc(OC)c(OC)c3)c(=O)c2cc1OCC
  i | 1% | 1.1% | 1e-09 | i
> Cc1ccc(S(=O)(=O)c2nc(C(C)(C)C)oc2N2CCOCC2)cc1
  i | 13% | -1.3% | 3.5e-09 | i
> Cc1c(NC(=O)Nc2c(Cl)cccc2Cl)c(=O)n(-c2ccccc2)n1C
  i | -1%[11.4 µM] | -0.2%[11.5 µM] | 1e-09 | i
> CCCc1cc(C(N)=O)c(NC(C)=O)s1
  i | 26% | 0.1% | 2.9e-08 | i
> COc1ncnc2sc(-c3ccccc3)cc12
  i | ? | 1.4% | 6.4e-09 | i
> O=C(CSc1nnc(SCc2ccc(Cl)cc2)s1)N1CCOCC1
  i | ? | -0.1% | 1e-09 | i
> Oc1ccccc1-c1nnc(-c2ccc(C(F)(F)F)cc2)o1
  i | 8% | 1.5% | 1.4e-08 | i

Grouped by structure: the compounds so far containing a COOH group.
Each structure is followed by: Resorufin autofl | TSHR ag | AID923 | A647 autofl | A488 autofl
> O=C(O)CN(CC(=O)O)c1ccccc1
  i | ? | 4.3%[11.5 µM] | 1e-08 | i
> O=C(O)CCn1c(=O)sc2ccccc21
  i | 2% | 0.6% | 1.6e-09 | i
> Cc1nc(=O)c(-c2ccccc2)c(C)n1-c1ccccc1C(=O)O
  i | 6% | -0.2% | 1e-09 | i
